# High-throughput results (PubChem BioAssay)
# KCNQ2 inh: KCNQ2 potassium channel inhibitors, primary screen, cell-based, CHO-K1, FluxOR thallium flux, B-score (AID 2156); B-score at 10 µM; Potassium voltage-gated channel subfamily KQT member 2 (Rattus norvegicus), O88943; 20 min; active compounds read low; only compounds with negative scores are shown here; some inactives read as strong as hits; 310,000 compounds, 1.1% hits;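 active = fluorescence ratio B-score at most minus 3 library SDs, with starting brightness B-score within 2 library SDs, cut at about -5.5 in these data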
# Target sequence (O88943 whole entry, looked up): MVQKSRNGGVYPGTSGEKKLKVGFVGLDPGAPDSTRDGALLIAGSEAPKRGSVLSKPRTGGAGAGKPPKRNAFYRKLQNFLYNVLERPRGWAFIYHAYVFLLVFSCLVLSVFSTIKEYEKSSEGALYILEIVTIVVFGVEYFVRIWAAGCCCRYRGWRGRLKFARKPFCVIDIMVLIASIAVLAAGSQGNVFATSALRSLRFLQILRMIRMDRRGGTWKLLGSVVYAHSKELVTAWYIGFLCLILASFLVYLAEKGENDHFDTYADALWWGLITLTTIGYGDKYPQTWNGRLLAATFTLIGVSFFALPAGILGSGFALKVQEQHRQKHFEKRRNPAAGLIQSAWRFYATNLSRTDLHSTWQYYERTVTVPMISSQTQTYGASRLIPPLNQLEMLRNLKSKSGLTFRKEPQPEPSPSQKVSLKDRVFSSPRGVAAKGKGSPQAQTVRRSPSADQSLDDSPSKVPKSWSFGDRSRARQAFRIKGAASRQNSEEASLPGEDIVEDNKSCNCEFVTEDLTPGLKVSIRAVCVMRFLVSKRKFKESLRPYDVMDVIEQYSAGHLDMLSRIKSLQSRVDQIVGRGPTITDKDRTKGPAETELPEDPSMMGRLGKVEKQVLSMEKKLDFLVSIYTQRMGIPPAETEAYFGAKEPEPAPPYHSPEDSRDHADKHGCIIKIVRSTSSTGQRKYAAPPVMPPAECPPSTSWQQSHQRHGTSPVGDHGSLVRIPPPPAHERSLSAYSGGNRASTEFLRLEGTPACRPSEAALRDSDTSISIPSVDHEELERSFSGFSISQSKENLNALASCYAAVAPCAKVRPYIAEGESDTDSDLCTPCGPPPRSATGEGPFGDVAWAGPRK
# KCNQ2 inh baseline: second read-out of KCNQ2 inh, no call of its own (marks repeat the call); B-score; measured here: initial fluorescence intensity artifact check;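 brightness before thallium and not channel activity; 0 = typical well and far values either way flag optical interference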
# Starred values were filed as active, the others as inactive; i = inactive. These rows are one share of the data (hit frequency here may not be typical).
# The first 2 compounds, ahead of the listing:
SMILES,KCNQ2 inh,KCNQ2 inh baseline
Cc1ccc(NC(=O)Nc2ccc3c(c2)OCO3)c(OC(F)F)c1,i,-1.1
Cc1ccc(C(=O)NCCCCNC(=O)c2ccc(C)o2)o1,i,0.59

# The listing, previewed entries included:
SMILES,KCNQ2 inh,KCNQ2 inh baseline
Cc1ccc(NC(=O)Nc2ccc3c(c2)OCO3)c(OC(F)F)c1,i,-1.1
Cc1ccc(C(=O)NCCCCNC(=O)c2ccc(C)o2)o1,i,0.59
Cc1cccc(N2CCN(C(=O)NC3CCCCC3)CC2)c1C,i,1
C=CCn1c(=O)c2ccccc2n2c(SCC(=O)NCCc3ccccc3)nnc12,i,-2.6
CCOC(=O)c1cc(NC(=O)N(CC)C2CCCCC2)c(C)nc1C,i,-1.5
Cc1c(OC(C)C(=O)O)ccc2c(-c3ccccc3)cc(=O)oc12 (configuration not stated),i,-0.71
COc1ccc(C(=O)C=CNNC(=O)c2ccc(Cl)cc2)cc1,i,-0.68
C=CCn1c(SCC(=O)N2CCN(c3ccccc3)CC2)nc2c([nH]c3ccccc32)c1=O,i,0.56
CC(Nc1nc(-c2ccncc2)nc2ccccc12)c1ccccc1 (configuration not stated),i,-0.18
O=C(O)CSCC(=O)Nc1cc(C(F)(F)F)ccc1Cl,i,-1.2
Cc1c(NC=C(C#N)C#N)c(=O)n(-c2ccccc2)n1C,i,1.3
CCC(CC)C(=O)Nc1cc([N+](=O)[O-])ccc1Cl,i,-0.23
Cc1ccc2nc(NC(=O)C3CC(=O)N(Cc4ccco4)C3)sc2c1 (configuration not stated),i,0.1
COc1ccc(C(c2c(C)n(C)n(-c3ccccc3)c2=O)c2c(C)n(C)n(-c3ccccc3)c2=O)cc1,i,0.93
C/C(CC(=O)NCCCN1CCOCC1)=N\NC(=O)COc1ccc(Cl)cc1,i,0.01
O=C1Cc2ccccc2C(=O)N1CCc1ccccc1,i,-0.39
CCOC(=O)CC(NC(=O)c1cc2ccccc2oc1=O)c1cccc([N+](=O)[O-])c1 (configuration not stated),i,2.6
O=C(CN(c1ccccn1)S(=O)(=O)c1ccc(F)cc1)Nc1ccccc1,i,-1
O=C(NCC1CCCO1)C(c1cccnc1)N(C(=O)Cc1cccs1)c1ccccc1 (configuration not stated),i,0.52
Cc1cc(C)nc(N2CCC(C(=O)NC3CCCc4ccccc43)CC2)n1 (configuration not stated),i,0.17

# Complete entries as entered above. Values in the order: KCNQ2 inh, KCNQ2 inh baseline
# O=C(NCC1CCCO1)C(c1cccnc1)N(C(=O)Cc1cccs1)c1ccccc1 (configuration not stated) as listed: i, 0.52
# COc1ccc(C(=O)C=CNNC(=O)c2ccc(Cl)cc2)cc1 as listed: i, -0.68
# Cc1ccc(C(=O)NCCCCNC(=O)c2ccc(C)o2)o1 as listed: i, 0.59
# C=CCn1c(=O)c2ccccc2n2c(SCC(=O)NCCc3ccccc3)nnc12 as listed: i, -2.6
# Cc1cc(C)nc(N2CCC(C(=O)NC3CCCc4ccccc43)CC2)n1 (configuration not stated) as listed: i, 0.17

# In the list so far, these contain fluorine.
SMILES,KCNQ2 inh,KCNQ2 inh baseline
Cc1ccc(NC(=O)Nc2ccc3c(c2)OCO3)c(OC(F)F)c1,i,-1.1
O=C(O)CSCC(=O)Nc1cc(C(F)(F)F)ccc1Cl,i,-1.2
O=C(CN(c1ccccn1)S(=O)(=O)c1ccc(F)cc1)Nc1ccccc1,i,-1

# The results go on.
SMILES,KCNQ2 inh,KCNQ2 inh baseline
Cc1ccc(S(=O)(=O)c2c(C)nn(C(C)(C)C)c2OC(=O)C(C)(C)C)cc1,i,0.03
Cn1c(=O)c2c(nc(Br)n2C/C=N/NC(N)=S)n(C)c1=O,i,0.48
COc1ccc(S(=O)(=O)N2CCCOC2CNC(=O)C(=O)NCCCN2CCOCC2)cc1 (configuration not stated),i,4.2
CCc1cccc(NC(=O)CCCn2c(=O)[nH]c3ccsc3c2=O)c1,i,0.32
O=C(Oc1ccc(Br)cc1C(=S)N1CCCC1)c1ccccc1F,i,-2.1
CC1(C)SC(=S)N(/N=C/c2ccccc2O)C1N(O)C(=O)Nc1ccccc1 (configuration not stated),i,-1
CCOC(=O)C(C)On1c(-c2ccc(Cl)cc2)nc2ccc([N+](=O)[O-])cc21 (configuration not stated),i,0.28
CN(CC(=O)NC(=O)NCc1ccccc1)Cc1ccc(Cl)c(Cl)c1,i,-0.19
COc1cccc(OC)c1-c1nn2c(-c3ccccc3Cl)nnc2s1,i,-0.76
CC(/C=N/NC(=O)c1nnn(-c2nonc2N)c1CN(C)C)=C\c1ccco1,i,0.41
Cc1ccc(NC(=S)N2CCC(NC(=O)c3ccco3)CC2)cc1C,i,-3.3
Cc1cccc(C)c1NC(=O)C1(NC(=O)C2CCCN2C(=O)OC(C)(C)C)CCCCC1 (configuration not stated),i,2.9
O=C(c1cc2ccccc2oc1=O)N(Cc1ccco1)C1CCS(=O)(=O)C1 (configuration not stated),i,0.34
C[C@@H]1CC=C[C@H]2[C@H]1C(=O)N(Cc1ccccc1)[C@H]2c1ccoc1,i,1.1
Cc1ccc(CNC(=O)c2oc3ccc(S(=O)(=O)N4CCOCC4)cc3c2C)cc1,i,0.93
Cc1ccc(CCNC(=O)C2CCCN(S(C)(=O)=O)C2)cc1 (configuration not stated),i,0.14
Cc1ccc(N2CC(O)(c3cccs3)[N+]3=C2CCCC3)cc1 (configuration not stated),i,0.8
COc1ccc(Cn2c(CCC(=O)Nc3ccccc3OC)nc3cccnc32)cc1,i,0.95
Cc1cccc(NC(=O)C2C3C=CC(O3)C2C(=O)O)c1 (configuration not stated),i,0.92
Cc1cc(NC(=O)c2cnn3c(C(F)F)cc(-c4ccccc4)nc23)no1,i,1.8
O=C(NCCNC(=O)c1cc(OCC(F)(F)F)ccc1OCC(F)(F)F)Nc1ccc(Cl)cc1,i,0.84
COc1ccc(NS(=O)(=O)c2cn(C)c(=O)n(C)c2=O)cc1,i,-1.2
CCC(C)N(C)Cc1cccc(C2(O)CCN(S(=O)(=O)c3ccc(F)c(C)c3)CC2)c1 (configuration not stated),i,0.06
O=C(CCc1nnc(CCCCc2ccccc2)o1)NCCN1CCOC1=O,i,0.12
Cc1c(C(=O)O)oc2ccc(S(=O)(=O)NCc3ccccc3)cc12,i,-0.2
Cc1ccc(C(=O)N2CCCCCC2)cc1S(=O)(=O)N1CCOCC1,i,0.86
CCOC(=O)c1oc2ccccc2c1CN1CC(C)OC(C)C1 (configuration not stated),i,0.07
Cc1ccccc1-c1nc(CS(=O)(=O)CC(=O)N2CCCCC2)c(C)o1,i,0.02
N#Cc1ccc(-c2cn(-c3ccccc3)c3[n+]2CCCS3)cc1,i,3.4
CNC(=O)CSc1nnc(-c2ccco2)n1-c1cc(C)ccc1C,i,-1.8
CCN(CC)C(=O)CSc1nc2ccc(NC(=O)CSc3nnc(N)s3)cc2s1,i,0.97
CCOc1ccc(S(=O)(=O)N2CCOCC2)cc1NC(=O)CN1C(=O)NC(CC)(c2ccccc2)C1=O (configuration not stated),i,0.12
Cc1cc(S(=O)(=O)N(Cc2ccccc2F)C2CC2)ccc1-n1cnnn1,i,1.3
CC(=O)OCC(=O)[C@@]12OC(C)(C)O[C@@H]1CC1C3C[C@H](F)C4=CC(=O)C=CC4(C)[C@@]3(F)C(O)CC12C (some centres not stated),i,-0.65
COc1cc(S(=O)(=O)Nc2ncccc2C)c(OC)cc1Cl,i,-0.71
OC[C@H]1OC(O)[C@H](O)[C@@H](O)[C@H]1O (some centres not stated),i,1.8
COc1ccc(N=C2S/C(=C\c3ccc(C)s3)C(=O)N2CC(C)C)cc1,i,0.49
CC(C)C(NC(=O)CNC(=O)OC(C)(C)C)C(=O)NCc1ccc(Cl)cc1 (configuration not stated),i,-0.81
COc1ccccc1N/C(=N/S(=O)(=O)c1ccc(C)cc1)c1ccc(Cl)cc1,i,-0.15
Cc1ccc(-n2ncc3c2CCCC3NC(=O)c2ocnc2C)cc1C (configuration not stated),i,1.8

# Three compounds from above, sorted by molar mass, lowest first.
SMILES,KCNQ2 inh,KCNQ2 inh baseline
Cc1ccc(-n2ncc3c2CCCC3NC(=O)c2ocnc2C)cc1C (configuration not stated),i,1.8
CCC(C)N(C)Cc1cccc(C2(O)CCN(S(=O)(=O)c3ccc(F)c(C)c3)CC2)c1 (configuration not stated),i,0.06
CCOc1ccc(S(=O)(=O)N2CCOCC2)cc1NC(=O)CN1C(=O)NC(CC)(c2ccccc2)C1=O (configuration not stated),i,0.12

# Additional entries.
SMILES,KCNQ2 inh,KCNQ2 inh baseline
CCOC(=O)Nc1cc(C)ccc1OC,i,1.4
CC1CCN(C(=S)c2cn(Cc3cccc(F)c3)c3ccccc23)CC1,i,-3.3
O=C(Nc1ccc2c(c1)OCCO2)c1coc2ccccc2c1=O,i,1.3
S=C(c1ccc(-c2ccccc2Cl)o1)N1CCOCC1,i,0.62
CC(C)(C)c1ccc(NC(=S)NCc2cccs2)cc1,i,-0.11
COc1ccc(C(=O)CSc2nccc(=O)[nH]2)cc1,i,0.44
COc1ccc(NC(=O)C2C(=O)N(C)C3(C)CC2c2ccccc2O3)cc1 (configuration not stated),i,-0.25
CCCCCCC(C)n1[nH]c(=O)c2c(C)cc(=O)[nH]c21 (configuration not stated),i,3.2
CCn1ccnc1C(O)c1cccc2ccccc12 (configuration not stated),i,1.4
Cc1cccc(/C=N/c2sc3c(c2C(=O)OC(C)(C)C)CCN(C)C3)c1O,i,0.77
N#C/C(=C\c1cccnc1)C(=O)Nc1ccc(O)cc1F,i,-0.93
O=C(COc1ccccc1C(=O)NCC1CCCO1)Nc1ccc(Cl)cc1Cl (configuration not stated),i,0.25
O=C1CC(SCc2nc3ccccc3[nH]2)C(=O)N1c1cccc(F)c1 (configuration not stated),i,0.86
S=C(NCc1ccccc1)NC1CCCc2ccccc21 (configuration not stated),i,0.1
N#Cc1c(NC(=O)c2cc(C3CC3)on2)sc2c1CCC2,i,0.01
S=C(NCCc1ccccc1)Nc1c(Cl)cccc1Cl,i,0.86
CCN(CCCNC(=O)CCc1nc(-c2ccc(C)cc2)no1)c1cccc(C)c1,i,0.01
Cc1ccc2c(CN3CCCCC3)cc(=O)oc2c1C,i,0.1
O=C(C1CCCCC1)N1CCN(c2ccccc2F)CC1,i,0.68
COc1ccc(N(CC(=O)NC2CCCCC2)C(=O)CCC(=O)Nc2nc(C)cs2)cc1OC,i,-1.1
Cc1ccc(Nc2c(-c3ccc(C)o3)nc3ncccn23)cc1,i,-0.86
CCOc1nc(N2CCCCC2)nc(-n2cc(-c3ccccc3)nn2)n1,i,-1.3
CCOC(=O)c1cc(C#N)c(N2CCCCC2)nc1-c1ccccc1,i,-2.3
COc1cc(S(=O)(=O)Nc2cccnc2)ccc1F,i,-0.26
CC(C)(CC(=O)O)Cc1nc(-c2ccc(Cl)cc2)no1,i,0.04
O=C(/C=C\Nc1ccc2c(c1)OCO2)c1ccccn1,i,0.9
O=C(O)C1Cc2ccccc2CN1C(=O)COc1ccc(Cl)cc1Cl (configuration not stated),i,0.85
CC(NC(=O)COC(=O)C1CCN(c2ccc(C(F)(F)F)cn2)CC1)c1ccc(Br)cc1 (configuration not stated),i,0.07
Cc1ccc(NC(=O)C(NCc2ccccn2)c2ccccc2)cc1 (configuration not stated),i,0.51
Nc1nonc1-n1nnc(C(=O)N/N=C/c2ccc(F)cc2)c1-c1ccc2c(c1)OCO2,i,0.08
CCc1nc2ccccc2c(C(=O)OCC(=O)NC(=O)c2cccn2C)c1C,-5.6*,2*
O=C(NCc1ccccc1Cl)C1CCN(C(=O)c2sccc2-n2cccc2)CC1,i,0.63
O=C(CCn1cccc1)NC1CCCc2ccccc21 (configuration not stated),i,-0.02
CCOn1c(=O)c(=O)n(OC)c2ccccc21,i,0.18
O=C(NCCc1ccc(Cl)cc1)C1CCN(C(=O)N2CCOc3ccccc32)CC1,i,-0.43
COc1cccc(NC(=S)NN=C2CCC(C(C)(C)C)CC2)c1 (configuration not stated),i,-1.3
Cc1ccc(C(=O)N/N=C/c2ccc(-c3ccc(Br)cc3[N+](=O)[O-])o2)o1,i,-0.09
CNC(=S)N1N=C(c2ccc(OC)cc2)CC1c1ccc(N(C)C)cc1 (configuration not stated),i,0.29
Cn1cccc1Cc1nnc(SCC(=O)Nc2cccc(F)c2)n1CCc1ccccc1,i,0.05
Cc1ccc(Cn2c(=N)c(S(=O)(=O)c3ccc(Br)cc3)cc3c(=O)n4ccccc4nc32)cc1,i,2.2
COc1ccc(NC(=O)C(Cc2ccccc2)n2cccc2)cc1OC (configuration not stated),i,-0.55
O=C(CNC(=O)c1ccccc1Cl)OCC(=O)N1CCc2ccccc21,i,-0.39
Cn1cnnc1SCC(=O)Nc1ccc2nc(SCc3ccccc3Cl)sc2c1,i,0.45
COc1ccc(Cl)cc1C(=O)Nc1ccccc1N1CCN(C)CC1,i,-0.11
Cc1ccccc1/C=N/n1c(COc2ccccc2)n[nH]c1=S,i,-0.23
Cc1oc(-c2ccccc2F)nc1CN1CCC(C(=O)NCc2cccs2)CC1,i,-1.1
O=S1(=O)CC(O)C(N2CCC(c3ccccc3)CC2)C1 (configuration not stated),i,-0.28
O=C(COC(=O)c1ccc(S(=O)(=O)NCc2ccco2)cc1)Nc1ccccc1OC(F)F,i,-1.4
COc1cc2c(=O)n(Cc3ccco3)c(=O)n(CC(=O)c3cccc(Br)c3)c2cc1OC,i,-1.7
CN1/C(=C\C(=O)CN2C(=O)NC3(CCCCCC3)C2=O)C(C)(C)c2ccccc21,i,4.1
COc1ccc(N2CC(C(=O)N/N=C/c3ccccc3)CC2=O)cc1 (configuration not stated),i,0.02
CS(=O)(=O)C1=NSC2=NC(=O)/C(=C\c3ccc(OC(=O)c4ccco4)cc3)C(=N)N21,i,1.3
COc1ccc(CC(=O)OCC(=O)NCc2ccccc2Cl)cc1OC,i,0.01
